Screening data (PubChem BioAssay)
Beta apoptosis: beta cell apoptosis inhibition; INS-1E cytokine-induced death, ATP luminescence, 48 h; percent of positive-control rescue, neutral wells zero; protection from apoptosis, % (no concentration beside the values); 0.8% of 300,000 active;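 active = all replicates at 75% or more, or half of them and the mean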;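 note: 0% = cytokine-treated negative control wells and 100% = positive control rescue; higher means more ATP so stronger rescue from cytokine killing; wells of about 40 µL received 100 nL stock; the first replicate is given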
Bfl-1 A1 inh: inhibitors of the anti-apoptotic protein A1, read as caspase activation; MEF A1-2A-BIM cells, Caspase-Glo 3/7 luminescence, 3 h; percent of clofoctol response, vehicle zero; 0.066% of 330,000 active; caspase activation, % (concentration not given with the values);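 active = over half of replicate activation scores above 10%, or exactly half above 10 with the replicate mean above 10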;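 note: wells of about 30 µL received 50 nL stock; many hits fall short of the cut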
Ecoli growth: blocks Escherichia coli growth | OD600, 23 h; active compounds read low | OD600 absorbance (no concentration beside the values) | 0.21% of 330,000 active | AID 1053175;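 active = OD600 absorbance below the run mean of sample wells minus 3.6 SD, in any replicate, cut at about 0.56 in these data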;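 note: stock transfer was 300 nL into about 60 µL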
FGF22 binding: shifts melting point of recombinant human FGF22; recombinant FGF22 thermal shift, SYPRO orange fluorescence; percent of sucrose octasulfate shift, DMSO zero; 1.5% of 340,000 active; calls only at 9.99 µM; Q9HCT0;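 active = melting point raised past a set limit in the mean and every replicate; three in four hits are not shown here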
UCH37 inh: inhibitors of human deubiquitinating enzyme UCH37; purified proteasome/UCH37, Ub-AMC cleavage fluorescence; inhibition, % (no concentration beside the values); Q9Y5K5; 0.33% of 330,000 active; AID 588478;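 active = mean of two replicates above 20%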;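 note: 0% = compound-free wells with enzyme and 100% = wells lacking proteasome; stock transfer was 100 nL into about 20 µL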
Target sequence (Q9Y5K5 whole entry, looked up): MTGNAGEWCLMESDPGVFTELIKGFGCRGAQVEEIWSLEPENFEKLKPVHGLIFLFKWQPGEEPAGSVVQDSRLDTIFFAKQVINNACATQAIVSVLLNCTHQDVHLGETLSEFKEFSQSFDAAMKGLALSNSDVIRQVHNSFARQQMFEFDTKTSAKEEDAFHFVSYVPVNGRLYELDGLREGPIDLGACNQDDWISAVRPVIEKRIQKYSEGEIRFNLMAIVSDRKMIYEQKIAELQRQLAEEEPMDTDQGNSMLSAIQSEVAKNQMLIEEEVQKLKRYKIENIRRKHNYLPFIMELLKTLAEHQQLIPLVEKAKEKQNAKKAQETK
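assay system = human UCH37 enzyme supplied as purified proteasome complex | amount = proteasome at 0.15 nM in the dispensed enzyme solution | schedule = 30 min compound-proteasome preincubation then 25 min substrate reaction, room temperature | measured by = fluorescence, ex 355 nm, em 460 nm | benchmarks = no-proteasome wells (full inhibition) and compound-free wells (no inhibition)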
rRNA inh HTS: inhibitors of bacterial rRNA selective over humanized ribosomes; E. coli WT GFP vs humanized-ribosome RFP mutants, fluorescence, 24 h; active compounds read low; DMSO median 0, no signal -100; GFP signal change (wild-type ribosome), % (no concentration beside the values); 1.6% of 350,000 active;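 active = significant combined selectivity score with lowered wild-type GFP, culture density cut under 30%, mutant RFP and density less affected; inactive = any of these conditions unmet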; note: one replicate is shown; some compounds called inactive have numbers as strong as hits
T cruzi inh: T. cruzi replication inhibition; T. cruzi beta-gal in NIH3T3, luminescence, 90 h; inhibition, % (no concentration beside the values); 1.4% of 300,000 active;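 active = mean inhibition across valid replicates above about 55%, limit read from the data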;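 note: signal also drops with host cell toxicity which is not excluded here; 0% = plate median of DMSO wells and 100% = zero luminescence signal; higher percent means less beta-gal luminescence so fewer parasites; stock transfer was 50 nL into about 50 µL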
AF4-AF9 inh: inhibitors of human MLL-AF4/AF9 interaction; AlphaScreen, biotin-AF4 peptide binding to FLAG-AF9; inhibition, % at 10 µM; 0.47% of 350,000 active; AID 651704;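 active = every replicate reaching a set inhibition limit, whatever the replicate mean, cut at about 25% in these data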;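 note: 0% = plate neutral control median and 100% = total signal loss; the record names both 10 and 1 µM as test concentration; the first replicate is given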
Target sequence (P42568 whole entry, looked up): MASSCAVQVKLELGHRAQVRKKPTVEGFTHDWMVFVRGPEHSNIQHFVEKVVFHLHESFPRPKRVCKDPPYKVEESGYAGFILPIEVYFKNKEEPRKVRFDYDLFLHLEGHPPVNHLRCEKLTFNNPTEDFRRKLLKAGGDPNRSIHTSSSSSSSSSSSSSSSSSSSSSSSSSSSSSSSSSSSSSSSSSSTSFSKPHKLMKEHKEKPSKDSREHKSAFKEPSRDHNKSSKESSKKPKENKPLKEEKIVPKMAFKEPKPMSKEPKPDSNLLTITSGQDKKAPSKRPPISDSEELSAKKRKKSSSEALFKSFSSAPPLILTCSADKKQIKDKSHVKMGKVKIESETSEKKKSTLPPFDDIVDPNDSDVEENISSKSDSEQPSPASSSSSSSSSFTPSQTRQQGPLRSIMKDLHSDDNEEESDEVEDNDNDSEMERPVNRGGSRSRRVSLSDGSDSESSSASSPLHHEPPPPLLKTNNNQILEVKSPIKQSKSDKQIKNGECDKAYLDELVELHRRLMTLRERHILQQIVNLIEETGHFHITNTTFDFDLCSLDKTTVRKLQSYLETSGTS
rRNA inh HTS OD600: recorded beside rRNA inh HTS, whose call it bears; OD600 change, %; measured here: OD600 growth;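 optical density of the mix in the first replicate; 0 = DMSO median and -100 = no signal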
rRNA inh HTS RFP: also measured in rRNA inh HTS; calls as there; RFP signal change, %; measured here: RFP humanized mutant strains;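 first replicate; 0 = DMSO median and -100 = no signal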
* marks the source's active call; other numbers are inactive results; i = inactive; x = no result given.

molecule	FGF22 binding	AF4-AF9 inh	rRNA inh HTS RFP	rRNA inh HTS OD600	UCH37 inh	Ecoli growth	rRNA inh HTS	Bfl-1 A1 inh	T cruzi inh	Beta apoptosis
Cc1cccc(C(=O)N[C@@H](C)C(=O)N2CCN(c3ncccn3)CC2)c1	i	3.8	-3.1	6	-3.1	0.71	-1	0.1	x	-3
O=S(=O)(c1ccc2ccccc2c1)N1C=CC(C(F)(F)F)=NCC1	x	x	-2.2	0	6.0	0.71	6	-1.1	-1	-3
COc1ccccc1C(=O)Oc1cc(C)[nH]c(=O)c1[N+](=O)[O-]	i	-5.1	-2.1	0	x	x	1	-0.7	-9	3
O=C(c1cc(S(=O)(=O)N2CCC3(CC2)OCCO3)ccc1F)N1CCCCC1	i	-1.4	-6.7	1	3.6	0.66	1	0.5	-10	-2
COc1ccc(OCC(=O)Nc2ccc3c(c2)nc(CCN2CCN(C)CC2)n3C)cc1	i	1.0	2.6	9	5.8	0.69	0	0.5	8	x
O=C(C[C@H]1C[C@H](C(=O)N2CCCCC2)[C@@]2(CCc3ccccc3)c3[nH]c4ccc(Cl)cc4c3CCN2C1=O)NCc1ccco1	i	-4.2	3.4	16	-1.0	0.74	2	x	x	x
Cc1cc2cc(CNC(=S)NC3CCCCC3)ccc2[nH]1	i	3.3	14	2	0.1	0.64	3	-1.3	1	-10
O=C1CC2(CCCCCC2)Oc2ccccc21	i	-2.4	-3.0	0	-6.1	0.72	-1	-0.3	-8	-2
CCCn1c(Sc2nc3c(c(=O)[nH]c(=O)n3C)n2CCC)nc2c1c(=O)[nH]c(=O)n2C	x	x	x	x	0.9	0.71	x	0.0	-4	-7
O=C(O)CC1(CC(=O)NCc2ccc(F)cc2)CCCCC1	i	-1.5	0.3	4	3.7	0.64	-1	0.7	-8	x
COc1ccc(N(CC(=O)Nc2ccc3c(c2)OCCO3)S(C)(=O)=O)c(OC)c1	x	x	x	x	2.0	0.7	x	0.3	-10	-2
CN(C)c1ccc(/C=N/NC(=O)c2ccccc2Cl)cc1	i	8.0	0.3	6	x	x	13	-1.8	-2	7
COc1ccccc1CCNC(=O)CNC(=O)Cc1cccc2ccccc12	i	-7.5	0.2	-6	3.3	0.67	-1	-0.1	5	-4
O=C1/C(=C/c2ccc(F)cc2)SC(=S)N1NS(=O)(=O)c1ccccc1	i	-13	-0.7	11	14	0.69	-1	0.8	-6	1
Cc1ccc2c(c1)NC(=O)C(CC(=O)N(C)Cc1ccccc1)O2 (centres undefined)	i	-0.7	-1.3	-7	1.2	0.72	-5	0.2	2	-8
Cn1nccc1C(=O)Nc1sc2c(c1C#N)CCCC2	i	-9.6	-2.3	-1	-30	0.7	2	-0.9	-8	2
CC(=O)NC1(c2cccc(F)c2)CCN(CC(=O)NC(C)C)CC1	x	x	x	x	-0.2	0.71	x	-0.3	-3	-9
c1ccc(OCCN2C3=NCCN3c3ccccc32)cc1	x	x	x	x	-0.7	0.72	x	0.2	-2	5
CCOC(=O)c1cc(CC)sc1N	i	-4.3	-6.0	4	3.9	0.77	5	0.2	-13	1
Cc1cc(C)c2c(c1)/C(=N/NC(=O)c1ccc(O)cc1)CCC2	i	-0.6	2.1	1	x	x	-1	0.6	2	-8
c1ccc(CSc2ccc(-c3ccccn3)nn2)cc1	i	-1.4	-12	-28	4.4	0.68	-17	-2.3	58*	87*
CC(C)CCc1noc(CN(C)CC2CCN(Cc3ccccc3)CC2)n1	i	0.1	4.0	14	3.0	0.71	25	0.1	55*	0
CC(C)(C)OC(=O)NOCC(=O)N(CC(=O)c1ccccc1)Cc1ccccc1	i	x	2.6	-9	0.6	0.67	-15	-0.3	-12	1
C#Cc1ccc([C@H]2C=C(C(=O)O)O[C@@H](OCc3ccc(CO)cc3)C2)cc1	i	-3.5	-0.3	-7	2.1	x	-7	-0.8	-22	0
CCOC(=O)C1CCCN(/C=C2\SC(=S)N(CC)C2=O)C1 (centres undefined)	i	5.8	x	x	4.2	0.68	x	0.6	8	x
O=C(NCc1ccco1)c1ccc(-c2csnn2)cc1	i	4.4	x	x	2.4	0.65	x	0.5	-10	2
CC(CN1CCCCC1)OC(=O)/C=C/c1ccccc1 (centres undefined)	i	1.8	0.8	7	6.9	0.69	13	-0.3	-8	-2
O=C(NCCc1ccccc1)c1ccccc1NS(=O)(=O)N1CCCC1	x	x	x	x	-20	0.68	x	-0.5	-8	-3
CCc1ccc(NC(=O)CCS(=O)(=O)c2ccc3c(c2)CCN3C(C)=O)cc1	i	-0.8	-11	2	7.8	0.7	12	-0.1	-4	-1
Cc1ccc(C(=O)NCCNC(=O)c2ccc(C)nc2)cc1	i	-3.8	-0.2	17	3.9	0.68	5	-0.5	13	-3
CCn1c(SCC(=O)Nc2c(C)n(C)n(-c3ccccc3)c2=O)nc2c1c(=O)n(C)c(=O)n2C	x	-1.5	0.6	3	-1.1	0.66	17	0.0	-7	5
COC(=O)c1c(Sc2ccccc2)c2ccccc2n1C	i	-0.7	-4.5	0	2.2	0.68	-6	1.0	14	-9

Some values from the results shown:
COc1ccc(N(CC(=O)Nc2ccc3c(c2)OCCO3)S(C)(=O)=O)c(OC)c1 – Bfl-1 A1 inh = 0.3
O=C1/C(=C/c2ccc(F)cc2)SC(=S)N1NS(=O)(=O)c1ccccc1 – UCH37 inh = 14

Remaining list, next part.
molecule	FGF22 binding	AF4-AF9 inh	rRNA inh HTS RFP	rRNA inh HTS OD600	UCH37 inh	Ecoli growth	rRNA inh HTS	Bfl-1 A1 inh	T cruzi inh	Beta apoptosis
O=C(Nc1ccc2ccccc2c1)c1ccccc1F	i	-7.0	0.3	5	2.2	0.67	7	-6.5	-1	x
Cc1ccc(S(=O)(=O)N2CCN(C(=O)c3ccc(OCc4c(C)noc4C)cc3)CC2)cc1	x	x	x	x	2.5	0.73	x	0.3	16	-1
CC1(C)NS(=O)(=O)Oc2ccccc21	i	3.5	0.0	13	-2.3	0.66	10	-0.3	-13	-1
O=C(CN1CCN(Cc2ccc(Cl)cc2)CC1)N/N=C/C=C/c1ccccc1[N+](=O)[O-]	i	10	-11*	-26*	x	x	-42*	-1.6	-11	-1
O=C(Nc1ccccc1)NC1CCN(Cc2c(F)cccc2Cl)CC1	i	-3.0	0.9	-7	2.0	0.61	7	-1.1	9	1
COc1ccc(C(=O)Cc2nnc(C)s2)cc1	x	x	x	x	3.1	0.66	x	-0.1	3	-8
CC(C)Cc1cc(C(=O)N2CCCC(CCC(=O)N(C)CCc3ccccn3)C2)no1 (centres undefined)	i	-0.5	-1.9	-1	4.7	0.73	4	0.6	13	-4
CC1CCN(CCCCOc2cccc(C(C)C)c2)CC1	i	3.9	5.4	-22	1.5	0.69	-3	0.1	28	-1

Among those listed so far, these contain an aryl thioether with sulfur outside any ring:
molecule	FGF22 binding	AF4-AF9 inh	rRNA inh HTS RFP	rRNA inh HTS OD600	UCH37 inh	Ecoli growth	rRNA inh HTS	Bfl-1 A1 inh	T cruzi inh	Beta apoptosis
CCCn1c(Sc2nc3c(c(=O)[nH]c(=O)n3C)n2CCC)nc2c1c(=O)[nH]c(=O)n2C	x	x	x	x	0.9	0.71	x	0.0	-4	-7
c1ccc(CSc2ccc(-c3ccccn3)nn2)cc1	i	-1.4	-12	-28	4.4	0.68	-17	-2.3	58*	87*
CCn1c(SCC(=O)Nc2c(C)n(C)n(-c3ccccc3)c2=O)nc2c1c(=O)n(C)c(=O)n2C	x	-1.5	0.6	3	-1.1	0.66	17	0.0	-7	5
COC(=O)c1c(Sc2ccccc2)c2ccccc2n1C	i	-0.7	-4.5	0	2.2	0.68	-6	1.0	14	-9

Additional compounds:
molecule	FGF22 binding	AF4-AF9 inh	rRNA inh HTS RFP	rRNA inh HTS OD600	UCH37 inh	Ecoli growth	rRNA inh HTS	Bfl-1 A1 inh	T cruzi inh	Beta apoptosis
Nc1ccc2c(c1Br)Cc1ccccc1-2	i	4.1	-24	-67	-0.5	0.64	-57	x	x	x
COc1ccc(Cl)cc1NC(=O)CN(C)C(=O)c1cccc2cccnc12	i	1.7	-3.5	-2	-2.8	0.66	0	0.0	x	-6
COc1cc(/C=C/C(=O)OCC(=O)NC2CCS(=O)(=O)C2)ccc1O (centres undefined)	x	x	x	x	-12	0.69	x	0.6	9	-6
CCOc1ccc(CC(=O)NNC(=O)/C=C/C(=O)O)cc1	i	-12	1.2	5	0.7	0.67	2	1.1	3	-1
c1ccc2c(c1)OCC(c1csc3ncnc(N4CCCC4)c13)O2 (centres undefined)	x	x	x	x	3.8	0.68	x	-0.1	-21	20
Cc1cc(C)c(C)c(S(=O)(=O)N2CCN(C(=O)CNC(=O)c3ccco3)CC2)c1C	i	1.6	2.4	-1	0.4	0.65	-1	0.0	x	-1
COc1ccc(OCC(=O)O/N=C(\N)Cc2ccc(Cl)cc2Cl)cc1	x	x	x	x	2.1	0.75	x	0.2	16	10
CC(C)(C)C(=O)N1CCn2c1nc1ccccc12	i	11	3.2	-1	4.0	0.68	4	-0.3	-1	-6
COc1ccccc1C(=O)NC(=O)COC(=O)Cc1ccccc1[N+](=O)[O-]	i	-1.2	0.9	3	-0.8	0.67	9	0.3	-2	0
Cn1cc(Cl)c(C(=O)OCC(=O)Nc2nc(-c3ccc(Br)cc3)cs2)n1	x	x	x	x	-1.5	0.72	x	-2.0	8	1
CC(=O)c1sc(NC(=O)c2ccc(COc3ccccc3Cl)o2)nc1C	i	-0.6	4.7	4	x	x	-5	-0.6	-1	-22
Cc1ccccc1-c1cccc([C@@H]2C[C@H]3[C@H](CON3C)CN2Cc2ccccc2)c1	i	4.8	5.4	-3	6.0	0.71	12	x	x	x
O=C(CCN1C(=O)c2ccccc2C1=O)Nc1cccc(S(=O)(=O)NC2=NCCC2)c1	i	-2.1	-0.4	0	3.4	0.66	6	-0.5	-9	-4
CCc1ccc(C(C(=O)NCc2ccc(OC)cc2)N(CCOC)C(=O)Cc2cccs2)cc1 (centres undefined)	i	-8.6	-4.1	3	1.6	0.67	-1	0.2	21	5

This is a subset (hit frequency here may not be typical).
